AmpC nodet inh: AmpC beta-lactamase inhibition, detergent-free assay. Potency, µM (series often up to 28.7 µM), without a hit: top-dose activity change, negative = inhibition. AmpC nitrocefin hydrolysis, absorbance 480 nm, no detergent; potencies from a single point are estimates. actives 1.8% (n = 71,000). P00811; active = falling curve, for most hits resting on a single point; inconclusive = weak or doubtful change; inactive = flat or rising curve; further: % of control where 0% means no effect; about half of the hits show no inhibition at the top dose; a quarter of the inactives give rising signals
Target sequence (P00811 whole entry, looked up): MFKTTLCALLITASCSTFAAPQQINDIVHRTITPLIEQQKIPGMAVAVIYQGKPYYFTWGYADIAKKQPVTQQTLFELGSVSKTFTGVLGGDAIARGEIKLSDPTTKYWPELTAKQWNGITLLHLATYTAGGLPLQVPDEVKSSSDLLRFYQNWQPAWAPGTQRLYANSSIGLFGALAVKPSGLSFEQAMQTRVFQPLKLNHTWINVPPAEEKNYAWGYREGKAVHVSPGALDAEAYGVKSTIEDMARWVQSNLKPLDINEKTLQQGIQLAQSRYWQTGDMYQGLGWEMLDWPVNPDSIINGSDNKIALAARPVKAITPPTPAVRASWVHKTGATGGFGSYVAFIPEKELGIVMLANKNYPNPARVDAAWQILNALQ
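Enzyme, pH 7.0 phosphate. Compound titrations were pre-incubated with AmpC for 15 min at room temperature before nitrocefin (stock 800 uM) addition; product formation was recorded at 480 nm every 20 s for 4 min.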
Active calls of the source: *; ? = inconclusive; & = joins results of further samples; [ ] = remark or other dose. Potency means the concentration at half of the fitted maximal effect. These rows are one share of the data. The share of hits here may be higher or lower than overall.

SMILES	AmpC nodet inh
COc1cccc(C2CC(C(F)(F)F)n3ncc(C(=O)NCC4CCCO4)c3N2)c1 (stereo not drawn)	93%
Cc1c(N=C2NC(=O)C(CC(=O)Nc3ccc(Cl)cc3)S2)c(=O)n(-c2ccccc2)n1C (stereo not drawn)	102%
COc1ccccc1-n1c(SCC(=O)N2CCCCC2)nc2cccnc21	35%
O=C(CC(Nc1ccccc1)C(=O)O)c1ccccc1 (stereo not drawn)	-18%
O=C(C1CCN(Cc2cc(Cl)ccc2O)CC1)N1CCN(Cc2ccccc2)CC1	113%
Cc1ccc2oc(=O)cc(CN3CCC(C)CC3)c2c1	-8%
CCCn1c(=NC(=O)c2ccco2)c(C(=O)OCC)cc2c(=O)n3ccccc3nc21	57%
CCc1cc2c(=O)[nH]cnc2s1	4%
CCCCNC(=O)C1C2C=CC3(CN(Cc4ccccc4Cl)C(=O)C13)O2 (stereo not drawn)	38%
CC1(C)S[C@@H]2[C@H](NC(=O)Cc3ccccc3)C(=O)N2[C@H]1C(=O)O	-4%[12.8 µM]
O=c1cc(-c2ccccc2Cl)c2c([nH]1)CCC2	4µM*[single pt active]
CCCCc1oc2ccccc2c1C(=O)c1cc(I)c(OCCN(CC)CC)c(I)c1	20%[12.8 µM]
CCN(CC(=O)Nc1ccccc1OC)C(=O)C1CC2C=CC1C2 (stereo not drawn)	10%
O=C1OCCC1Sc1nc2ccccc2n1-c1ccccc1 (stereo not drawn)	34%
O=C(CN1CCN(Cc2ccc3c(c2)OCO3)CC1)N1CCc2[nH]c3ccc(F)cc3c2C1	122%
CC(C)(C)OC(=O)N1CCCC1C(=O)N1CCc2ccccc21 (stereo not drawn)	15%
COc1ccc(-c2nn(-c3ccccc3)cc2CO)cc1OC	32%
Cc1ccc(C2N(c3cccc(Cl)c3)C(=O)C3CCCN32)o1 (stereo not drawn)	-10%
Cc1ccc(Nc2nc(N3CCOCC3)nc(N3CCOCC3)n2)cc1	15%
N=C1[C@@H](O)[C@]2(I)c3ccccc3N3C(=N)[C@H](O)[C@@H]4c5ccccc5N1[C@@H]4[C@@H]32	-17%[5.75 µM]
CC(C)Cc1cc(C(=O)N2CCN(c3ccc(F)cc3)CC2)no1	53%
CCc1cccc(NC(=O)C2CCCC2)c1	-1%
CN1CCc2c(sc(NC(=O)c3ccc(S(=O)(=O)N4CCOCC4)cc3)c2C(N)=O)C1	92%
O=C(O)CSc1nnc(CNc2ccccc2Cl)n1-c1ccccc1	-6%
CCOC(=O)Cn1cnc2c(nnn2-c2ccc(OC)cc2)c1=O	2%
COc1cccc(-c2noc(CCC(=O)Nc3cccnc3)n2)c1	17%
COc1ccc(N2CCN(C(=O)c3ccc(-n4nc(C)cc4C)cc3)CC2)cc1	94%
Cc1cc(C)n(CCOc2ccc(Cl)cc2Cl)n1	29%
COc1cc(C)c(Cl)c(C)c1S(=O)(=O)NCc1ccc2c(c1)OCO2	9%
COc1ccc(OC)c(S(=O)(=O)N2C(C)CCCC2C)c1 (stereo not drawn)	-5%
Cc1ccc(S(=O)(=O)C(C#N)c2nc3ccccc3nc2N2CC(C)OC(C)C2)cc1C (stereo not drawn)	51%
CCOC(=O)N1CCN(C(=O)C2c3cc(OC)c(OC)cc3C(=O)N3CCc4ccccc4C23)CC1 (stereo not drawn)	72%
CCc1cccc(NC(=O)CCc2nc(-c3cccs3)no2)c1	-4%
COC(=O)c1ccccc1NC(=O)CN1CCC(n2nnc3cc(C)ccc32)CC1	28%
COc1cc(C2=NOC(C(=O)N3CCN(c4ccc(F)cc4)CC3)C2)cc(OC)c1OC (stereo not drawn)	121%
c1ccc(-c2noc(C3CCCCC3)n2)nc1	4%
COc1cccc(C2CC(c3ccccc3Cl)n3ncnc3N2)c1 (stereo not drawn)	38%
CN1CCN(c2nc3nonc3nc2N2CCN(C)CC2)CC1	-12%
CCCCSc1nc(C)c(CC(=O)OC)c(=O)[nH]1	-12%
CN(Cc1ccco1)C(=O)C1CCC(=O)N1Cc1ccc(F)cc1 (stereo not drawn)	10%
COc1cccc(-c2nnc(NC(=O)c3ccc(S(=O)(=O)N4CC(C)OC(C)C4)cc3)o2)c1 (stereo not drawn)	23%
Cn1c(=O)c2c(nc(CN3CCN(c4ccccc4)CC3)n2CCc2ccccc2)n(C)c1=O	126%
CCOc1cc(C(=O)Nc2cc(C)on2)cc(OCC)c1OCC	13%
BrCC(Br)(Br)Br	-11%
O=C(c1cccs1)c1ccc(-c2cccs2)s1	-24%
Cc1cc(C)cc(NC(=O)CSc2nnc(Cn3c(=O)sc4ccccc43)n2C)c1	4µM*[single pt active]
CCc1ccc2[nH]c(=O)c(CN(Cc3ccccc3OC)Cc3nnnn3Cc3ccco3)cc2c1	3%
C[N+](C)(C)CCO	4%
CCCCCCn1c(SCC(C)C)nc2c1c(=O)[nH]c(=O)n2C	6%
Cc1n[nH]c2ccccc2c1=O	0%[5.75 µM]
CCn1nc(C(=O)OCc2c(C)noc2C)c2ccccc2c1=O	44%
COC(=O)c1cc(=O)nc2sc(-c3cccs3)nn12	5%
CCOC(=O)C1CCN(Cc2nc(-c3ccc(OC)c(OC)c3)no2)CC1	104%
COc1ccc(-c2ccc(SCC(=O)N3CCOCC3)nn2)cc1	2%
COc1cccc(-c2nn(C)c3sc(C(=O)NCc4ccccn4)cc23)c1	108%
O=C1C(Cl)=C(N2CCCCC2)C(=O)N1c1ccccc1	-3%
COc1ccc2cc(CN(CCc3ccccc3)Cc3nnnn3Cc3ccco3)c(=O)[nH]c2c1	2%
CC(C)C(NS(=O)(=O)c1cccs1)C(=O)NCCN1CCN(c2ccccc2)CC1 (stereo not drawn)	26%
COc1ccc(C2C(C(=O)N3CCOCC3)CCC(=O)N2c2cc(OC)c(OC)c(OC)c2)cc1 (stereo not drawn)	22%
CC1Cc2ccccc2N1C(=O)CSc1nc2ccccc2n1CC(=O)N1CCOCC1 (stereo not drawn)	81%

Additional records.
SMILES	AmpC nodet inh
COC(=O)c1ccccc1NC(=O)N1CCN(S(=O)(=O)c2ccc(Cl)cc2)CC1	36%
COc1ccc(CNc2nc3c(c(=O)n(Cc4ccc(F)cc4)c(=O)n3C)n2C)cc1	64%
COc1cccc(Oc2c(C)oc3cc(OC(=O)N(C)C)ccc3c2=O)c1	63%
Cc1ccc(-c2cnc(-c3ccncc3)o2)cc1	38%
O=C(NCC1CCCO1)c1cccc(Br)c1 (stereo not drawn)	4%
CCc1ccc(C=NC23CN4CN(CN(C4)C2)C3)s1	0%
Nn1c(SCC(=O)N2CCCCC2)nnc1-c1ccncc1	-9%
COCCNC(=O)C(C#N)c1nc2ccccc2nc1N1CCCCCC1 (stereo not drawn)	112%
CSc1ccccc1NC(=O)c1ccncc1	5%
c1cn(CCCNc2ncnc3nc[nH]c23)cn1	-23%
O=C(c1scc2c1CCCC2)N1CCCCC1	-6%
CCc1ccc(NC(=O)CSc2nnc(-c3cnccn3)n2Cc2ccco2)cc1	63%
Cc1ccc(-c2nn3c(-c4ccco4)nnc3c3ccccc23)cc1S(=O)(=O)N1CCOCC1	19%
COc1ccc(NC(=O)c2cc(-c3ccccc3OC)on2)cc1	-20%
Cn1cnc2c1c(=O)n(Cc1ccc(F)cc1Cl)c(=O)n2C	29%
CN(C)C(=O)NCc1ccc(S(N)(=O)=O)cc1	2%
COc1cc(NC(=O)c2cccs2)ccc1NC(=O)c1ccco1	-9%
O=C(c1cccc(F)c1)N1CCC2(CC1)CCN(C(c1ccccc1)c1ccccc1)CC2	96%
CCCN1C(=O)C(NC(=O)c2ccncc2)(C(F)(F)F)C2=C1CC(C)(C)CC2=O (stereo not drawn)	21%
COc1c(O)ccc2c1CN1CCc3cc4c(cc3[C@@H]1C2)OCO4	1%[5.75 µM]
CCOC(=O)c1ccc(NC(=O)CSc2nc3c(c(=O)n2-c2ccccc2OC)SCC3)cc1	-2%
COc1cccc(C2C(C(=O)Nc3ccc(C)cc3C)=C(C)Nc3ncnn32)c1OC (stereo not drawn)	18%
Cc1ccc(OCc2ccc(C(=O)Nc3nccs3)o2)cc1	?
Cn1nnnc1SCC(=O)NC1CCCCC1	2%
CC(C)C(OC(=O)c1cccs1)C(=O)NCc1cccs1 (stereo not drawn)	3%
Cc1nc2ccc3nc(NC(=O)c4ccc5c(c4)OCCO5)sc3c2s1	-5%
Cc1ccc(Cn2c(N3CCCCCC3)nc3c2c(=O)[nH]c(=O)n3C)cc1	20%
COc1ccc2c(c1OC)C(=O)O[C@@H]2[C@H]1c2c(cc3c(c2OC)OCO3)CCN1C	59%
Cc1onc(-c2c(F)cccc2Cl)c1C(=O)NCc1cccs1	-3%
COCCn1c(=O)c(-c2cc(F)cc(F)c2)nc2cnc(OCc3ccccc3)nc21	-7%
Cc1oc(-c2ccccc2F)nc1CS(=O)CC(=O)NCc1cccs1 (stereo not drawn)	4µM*[single pt active]
CN(C)c1ccnc(SCc2ccccc2Cl)c1C#N	-2%
CCOC(=O)C1[C@H]2C(=O)N(CCCOC)C[C@]23C=C[C@H]1O3 (stereo partly drawn)	4%
CN(C)c1ccc(Nc2nc(-c3cccnc3)cs2)cc1	-7%
c1cn(CC2(Cn3ccnc3)COC2)cn1	-6%
O=C(O)c1ccc(CSc2nnc(-c3ccco3)o2)cc1	-7%
Cc1c(NC(=O)NCc2ccccc2)c(=O)n(-c2ccccc2)n1C	-2%
CC(C)c1ccc2c(c1)c(SC(C)(C)C)c(CC(C)(C)C(=O)O)n2Cc1ccc(Cl)cc1	7%&-5%
Cc1nc2ccc(C(=O)N3CCSCC3)cc2s1	0%
Cc1cc(Cl)ccc1OCC(=O)N1CC(C)CC(C)C1 (stereo not drawn)	36%
Cc1noc(C)c1S(=O)(=O)N1CCCC(C(=O)N2CCc3ccccc3C2)C1 (stereo not drawn)	115%
CN[C@@H]1NC(=O)c2ccccc2N1Cc1ccc(F)cc1	1%[5.75 µM]
CC(CC(=O)O)(CC(=O)O)c1ccccc1	2%[5.75 µM]
O=C1CC(N2CCN(c3ccccc3F)CC2)C(=O)N1c1ccc2c(c1)OCCO2 (stereo not drawn)	80%
N#CNC(N)=Nc1ccc(Cl)cc1	3%[5.75 µM]
O=C1c2ccccc2C(=O)N1CCSc1nnc(-c2ccco2)n1Cc1ccccc1	70%
CCCc1nc2ccccc2c(=O)n1-c1c(C)n(C)n(-c2ccccc2)c1=O	2%
Cc1ccc(C)n1CCN1CCN(C(=O)c2ccco2)CC1	78%
CCOC(=O)N1CCN(C(=O)c2cc(C)no2)CC1	-12%
CCOC(=O)c1nnn(CC(=O)Nc2ccccc2OC)c1C(=O)OCC	15%
CC(/C(O)=C(\C#N)c1nc2ccccc2n1C)N1C(=O)c2ccccc2C1=O (stereo not drawn)	42%
COc1ccc(CCNC[C@H](O)c2ccc(O)cc2)cc1OC	-5%
CCCCOC(=O)Nc1nc(C)c(C(=O)OCC)s1	-3%
Cc1cc(NC(=O)Cn2cc(C(F)(F)F)cc(Cl)c2=O)no1	-7%
COC(=O)c1ccc(OC(=O)c2ccc(OCc3c(C)noc3C)c(OC)c2)cc1	9%
COC(=O)C1=CN(C)C=C(C(=O)OC)C1c1ccccc1Cl	35%
CC(=O)N1CCN(c2cccc(C)c2C)CC1	23%
COc1ccc(OC(C)C(=O)N2CCc3ccccc3C2)cc1 (stereo not drawn)	27%
COc1cccc(C2C(C(=O)NCc3ccccc3)=C(C)Nc3ncnn32)c1 (stereo not drawn)	5%
CCc1c(C)nc(N)n2c(SCC(=O)N3CCN(c4ccccc4)CC3)nnc12	-16%

The results go on.
SMILES	AmpC nodet inh
Cc1oc(-c2ccccc2F)nc1CS(=O)(=O)CC(=O)NCCCc1ccccc1	48%
COc1ccccc1N1CCN(CC(O)COc2ccc(S(=O)(=O)N3CCOCC3)cc2)CC1 (stereo not drawn)	69%
COc1ccc(S(=O)(=O)NC2CC(C)(C)NC(C)(C)C2)c(C)c1C	16%
Cc1cc(S(=O)(=O)Nc2cccnc2)c(C)s1	-8%
CCSc1nnc(NC(=O)c2cccc(OCc3c(C)noc3C)c2)s1	14%
CC(C)(C)c1[nH]nc2c1C(c1ccccc1OC(=O)N1CCOCC1)C(C#N)=C(N)O2 (stereo not drawn)	52%
Cc1nn(C)c(C)c1S(=O)(=O)N1CCCC(C(=O)NC2CCCCCC2)C1 (stereo not drawn)	4µM*[single pt active]
CN(C)c1ccc(N=Cc2c(O)n(CCC3=CCCCC3)c(=O)[nH]c2=O)cc1	-1%

Compounds from the list above with a furan ring, fused or not:
SMILES	AmpC nodet inh
CCCn1c(=NC(=O)c2ccco2)c(C(=O)OCC)cc2c(=O)n3ccccc3nc21	57%
CCCCc1oc2ccccc2c1C(=O)c1cc(I)c(OCCN(CC)CC)c(I)c1	20%[12.8 µM]
Cc1ccc(C2N(c3cccc(Cl)c3)C(=O)C3CCCN32)o1 (stereo not drawn)	-10%
CN(Cc1ccco1)C(=O)C1CCC(=O)N1Cc1ccc(F)cc1 (stereo not drawn)	10%
CCc1ccc2[nH]c(=O)c(CN(Cc3ccccc3OC)Cc3nnnn3Cc3ccco3)cc2c1	3%
COc1ccc2cc(CN(CCc3ccccc3)Cc3nnnn3Cc3ccco3)c(=O)[nH]c2c1	2%
CCc1ccc(NC(=O)CSc2nnc(-c3cnccn3)n2Cc2ccco2)cc1	63%
Cc1ccc(-c2nn3c(-c4ccco4)nnc3c3ccccc23)cc1S(=O)(=O)N1CCOCC1	19%
COc1cc(NC(=O)c2cccs2)ccc1NC(=O)c1ccco1	-9%
Cc1ccc(OCc2ccc(C(=O)Nc3nccs3)o2)cc1	?
O=C(O)c1ccc(CSc2nnc(-c3ccco3)o2)cc1	-7%
O=C1c2ccccc2C(=O)N1CCSc1nnc(-c2ccco2)n1Cc1ccccc1	70%
Cc1ccc(C)n1CCN1CCN(C(=O)c2ccco2)CC1	78%
